Bioassay records: PubChem BioAssay, several laboratories
CBX7 inh: CBX7 inhibition, primary AlphaScreen. O95931. AlphaScreen His6-CBX7 / biotin-H3K27me3 peptide binding; hits give low values. normalised signal (fraction of DMSO) (concentration not given with the values). hit rate 1.1% among 66,000; in the data active = normalised signal below about 0.5;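 also: 100 nL library stock added to about 20 µL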
Target sequence (O95931 whole entry, looked up): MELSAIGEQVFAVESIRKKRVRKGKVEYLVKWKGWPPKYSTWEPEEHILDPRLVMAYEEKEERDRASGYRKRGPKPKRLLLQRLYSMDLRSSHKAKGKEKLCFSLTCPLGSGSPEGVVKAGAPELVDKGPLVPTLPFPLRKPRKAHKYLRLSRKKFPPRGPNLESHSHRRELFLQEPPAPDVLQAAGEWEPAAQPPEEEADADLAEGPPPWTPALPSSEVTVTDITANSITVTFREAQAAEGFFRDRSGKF
CBX7 inh z-score: also measured in CBX7 inh; calls as there; z-score; measured here: z-score of CBX7 signal; some inactives read as strong as hits; reference of the scale not given here;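 same signal on another scale; lower means less binding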
Starred values were filed as active, the others as inactive; & = joins results of further samples.

SMILES | CBX7 inh | CBX7 inh z-score
CCc1ccc(-c2nc(CSCC(=O)NCCc3ccc(OC)c(OC)c3)c(C)o2)cc1 | 0.739 | -1.71
CNS(=O)(=O)c1cc(-c2nnc(Nc3ccc4c(c3)OCO4)c3ccccc23)ccc1C | 0.801 | -2.24
O=C(Nc1ccccc1C(=O)NCc1cccnc1)c1ccc(Br)cc1 | 1.18 | 1.77
FC(F)(F)c1cc(-c2ccccc2)nc(N2CCN(c3ccccc3)CC2)n1 | 1.37 | 4.07
CC(=O)N1CCc2cc(S(=O)(=O)Nc3cc(Cl)ccc3C)ccc21 | 0.991 | -0.28
COc1ccc(-c2nc3c(C)cccn3c2Nc2ccc(C)cc2)cc1 | 0.506 | -3.96
COc1ccc(NCC(O)Cn2c3ccccc3c3ccccc32)cc1 (configuration not stated) | 0.452* | -16.2*
Cc1cccc(NC(=O)CCCOc2ccc(Cl)cc2Cl)n1 | 1.02 | 0.313
O=C(Nc1ccc(F)cc1)c1ccc(NC2=NC3CS(=O)(=O)CC3S2)cc1 (configuration not stated) | 0.989 | -0.208
CC(Oc1ccc(F)cc1)C(=O)Nc1nc(-c2ccc(S(=O)(=O)N3CCOCC3)cc2)cs1 (configuration not stated) | 0.951 | -1
Cc1cc(N2CCN(S(=O)(=O)c3ccccc3)CC2)c2ccccc2n1 | 0.791 | -3.22
O=C(CC1C(=O)N(c2cccc(Cl)c2)C(=O)N1Cc1cccs1)Nc1ccccc1 (configuration not stated) | 1.04 | 0.107
CC1CCCCN1CCCNC(=O)CN1C(=O)COc2ccccc21 (configuration not stated) | 1.02 | 0.594
Oc1ccccc1-c1cc(-c2ccc(F)cc2)no1 | 0.878 | -1.41
CCOC(=O)c1cnc2ccc(OC)cc2c1Nc1ccccc1C(=O)O | 1.09 | 2.48
COc1nnc(-c2ccc(N3CCOCC3)c(NC(=O)COc3cccc(C)c3)c2)c2ccccc12 | 0.787 | -4.76
COc1cc(OC)c(NC(=O)Cn2ccc3ccccc3c2=O)cc1Cl | 1.2 | 1.75
CCOc1nnc(-c2ccc(C)c(S(=O)(=O)N(C)C)c2)c2ccccc12 | 1.01 | 0.417
COc1ccc(-c2nc(CSCC(=O)O)c(C)o2)cc1 | 1.02 | 0.859
CCOc1ccccc1N(CC)C(=O)Cn1nc(Cc2cccnc2)c2ccccc2c1=O | 1.08 | 0.796
CCCCNC(=O)c1cc(-c2cccnc2)nc2ccc(S(=O)(=O)N3CCC(C)CC3)cc12 | 1.24 | 1.59
O=C(CSc1nc(-c2ccccc2)[nH]c1-c1ccc(F)cc1)Nc1nccs1 | 1.13 | 2.19
Cc1cccc(C(=O)Nc2c(C(=O)N3CCCCC3)cnn2-c2ccccc2)c1 | 0.943 | -0.586
COC(=O)c1cc2sc(Cl)cc2n1Cc1nc(-c2ccccc2F)oc1C | 0.99 | -0.294
CCOc1ccc(-n2nc3ccc(NS(=O)(=O)c4ccccc4)cc3n2)cc1 | 1.05 | 0.801
COc1ccc(Nc2cc(C)nc3c2ccc2ccccc23)cc1 | 1.05 | 0.503
O=C(NC1CCCCCC1)c1ccc2c(c1)N(Cc1ccc(F)cc1)C(=O)c1ccccc1S2=O (configuration not stated) | 1.16 | 2.32
Cc1cc(=O)n2nc(N3CCCC(C(=O)N4CCCCCC4)C3)sc2n1 (configuration not stated) | 1.2 | 1.88
CCOc1ccc(S(=O)(=O)c2cn(Cc3ccccc3)c3ccc(OCC)cc3c2=O)cc1 | 0.903 | -3.66
CC(C)c1ccc(NC(=O)C2CCN(S(=O)(=O)c3cccs3)CC2)cc1 | 0.909 | -2.02
Cc1ccc(CNc2ccc3[nH]c(=O)[nH]c3c2)cc1 | 0.901 | -1.05
COc1ccc(N2CCN(C(=O)c3ccc4c(c3)NC(=O)c3ccccc3S4)CC2)cc1 | 0.919 | -0.594
O=C(Nc1nnc(-c2cccs2)o1)c1ccc(S(=O)(=O)N2CCOCC2)cc1 | 0.705 | -6.66
CC1CC(C)CN(CCCNC(=O)Cn2nc(-c3ccccc3)ccc2=O)C1 (configuration not stated) | 1.01 | 0.275
COc1ccc(CCNC(=O)C2CCN(Cc3nc(-c4ccc(Cl)cc4)oc3C)CC2)cc1OC | 1.04 | 0.623
COc1ccccc1-c1nc(-c2ccc(NC(=O)c3ccc4c(c3)OCO4)cc2)no1 | 0.97 | -0.293
COc1ccc(CCNc2nc(-c3cccs3)cc(C(F)(F)F)n2)cc1OC | 1.15 | 1.22
COc1ccccc1NC(=O)Cn1ncc2c1-c1cc(C)ccc1OC2 | 0.995 | -0.115
C=CCC1(Nc2ccccc2Cc2ccccc2)CCCCC1 | 1.17 | 3.93
CC1CCCCC1NC(=O)Cn1nc(Cc2cccnc2)c2ccccc2c1=O (configuration not stated) | 0.981 | -0.0248
CCc1ccccc1NC(=O)c1cc(-c2ccc(Cl)cc2)on1 | 1.18 | 0.515
O=C(CSc1nccn1-c1ccc(Cl)cc1)Nc1cccc(C(F)(F)F)c1 | 0.451* | -1.94*
COc1ccc(C2C(=O)N(C3CCCCCC3)CC(=O)N2C2CC2)cc1OC (configuration not stated) | 1.1 | 1.03
CCCN(C(=O)Cn1ncc2c1-c1ccccc1OC2)c1ccccc1C | 0.746 | -7.3
CCc1ccc(C(=O)CSc2nnc(-c3cccc(Br)c3)o2)cc1 | 1.05 | 0.67
Cc1ccccc1NC(=O)c1c(-c2ccccc2)noc1C | 1.09 | 2.01
Cc1cccc2nc(-c3c[nH]c4ccccc34)c(Nc3ccc4c(c3)OCO4)n12 | 0.982 | -0.478
O=C(CC(Sc1cccc2cccnc12)c1ccc(F)cc1)c1cccs1 (configuration not stated) | 0.00632* | -3.92*

2 records picked at random from the list so far, as already listed:
SMILES | CBX7 inh | CBX7 inh z-score
COc1ccc(CCNC(=O)C2CCN(Cc3nc(-c4ccc(Cl)cc4)oc3C)CC2)cc1OC | 1.04 | 0.623
Oc1ccccc1-c1cc(-c2ccc(F)cc2)no1 | 0.878 | -1.41

The list goes on.
SMILES | CBX7 inh | CBX7 inh z-score
C=CCc1ccccc1OCC(O)Cn1cnc2ccccc21 (configuration not stated) | 0.557 | -0.92
O=C(C1CCCN(c2nc3ccccc3[nH]2)C1)N1CCOCC1 (configuration not stated) | 0.994 | -0.0728
COc1ccc(NC(=O)CNC(=O)c2cn(-c3ccccc3OC)c(=O)c3ccccc23)c(OC)c1 | 1.09 | 1.06
O=C(CSc1nc2ccccc2[nH]1)Nc1nncs1 | 0.836 | -2.11
Cc1ccc(NC(=O)CN(c2ccc(C(C)C)cc2)S(=O)(=O)c2c(C)nn(C)c2C)cc1 | 1.21 | 1.52
CC(C)c1nnc(NC(=O)CCCOc2ccc(C(C)(C)C)cc2)s1 | 1.33 | 3.2
CC(C)C(=O)Nc1ccc(-c2nc3cc(C(C)C)ccc3o2)cc1 | 1.02 | 0.637
O=C(Nc1cccc(Cl)c1)Nc1nnc(-c2ccccc2Br)s1 | 1 | 0.00422
Cc1ccc(Cn2c(=O)[nH]c3ncccc3c2=O)cc1 | 0.989 | -0.193
Cc1cc(=O)n2nc(N3CCCC(C(=O)NCCCc4ccccc4)C3)sc2n1 (configuration not stated) | 1.19 | 1.81
CC1=C(C(=O)Nc2ccc(C)cn2)C(c2ccc3c(c2)OCO3)C2=C(CC(C)(C)CC2=O)N1 (configuration not stated) | 1.04 | 0.377
Cn1c(NCc2cccc(Br)c2)nc2ccccc21 | 0.888 | -2.1

Arranged by formula weight (low to high): three of the compounds above
SMILES | CBX7 inh | CBX7 inh z-score
Cn1c(NCc2cccc(Br)c2)nc2ccccc21 | 0.888 | -2.1
CC(C)C(=O)Nc1ccc(-c2nc3cc(C(C)C)ccc3o2)cc1 | 1.02 | 0.637
Cc1cc(=O)n2nc(N3CCCC(C(=O)NCCCc4ccccc4)C3)sc2n1 (configuration not stated) | 1.19 | 1.81

Full records, looked up by structure:
Results for Cc1cc(=O)n2nc(N3CCCC(C(=O)NCCCc4ccccc4)C3)sc2n1 (configuration not stated) = CBX7 inh: 1.19; CBX7 inh z-score: 1.81
Results for COc1ccc(NC(=O)CNC(=O)c2cn(-c3ccccc3OC)c(=O)c3ccccc23)c(OC)c1 = CBX7 inh: 1.09; CBX7 inh z-score: 1.06

(next part)
SMILES | CBX7 inh | CBX7 inh z-score
COc1ccc(C2CC(c3cccnc3)Nc3ncnn32)cc1 (configuration not stated) | 1 | 0.011
CCOC(=O)c1c(NC(=O)COc2ccc(C)cc2Br)sc2c1CCCC2 | 0.984 | -0.0361
CCc1ccccc1NC(=O)[C@H](CCS(C)(=O)=O)N1Cc2ccccc2C1=O | 0.932 | -0.441
CCOc1ccc(C(O)(CCN2CCCCC2)c2cccc(C)c2)cc1 (configuration not stated) | 0.943 | -0.682
CCn1c(CCNC(=O)c2ccccc2OC)nc2ccccc21 | 1.03 | 0.398
Cc1ccc2c(c1)N(CCCC(=O)NCCc1ccc(Cl)cc1)C(=O)CO2 | 1.47 | 0.963
CCOc1ccc(-n2c(Cc3cc(=O)[nH]c(=O)[nH]3)nnc2SCc2ccc(Cl)cc2)cc1 | 0.984 | -0.411
Cc1ccc(NC(=O)c2ccc(NC3=NC4CS(=O)(=O)CC4S3)cc2)cc1 (configuration not stated) | 0.957 | -0.811
CCCNC(=O)CN1C(=O)CC(C)(C)Sc2ccccc21 | 1.1 | 2.92
COc1ccc(NC(=O)c2cn(CC(C)C)c(=O)c3cc(OC)c(OC)cc23)cc1OC | 1.14 | 1.16
CCCN(CCC)C(=O)CC1Oc2ccccc2NC1=O (configuration not stated) | 1.16 | 0.945
Cc1cc(N2CCc3ccccc32)nc2cc(O)ccc12 | 1.1 | 2.01

Ordered by the number under CBX7 inh z-score (descending): 6 of the compounds above.
SMILES | CBX7 inh z-score
COc1ccc(NC(=O)c2cn(CC(C)C)c(=O)c3cc(OC)c(OC)cc23)cc1OC | 1.16
Cc1ccc2c(c1)N(CCCC(=O)NCCc1ccc(Cl)cc1)C(=O)CO2 | 0.963
COc1ccc(C2CC(c3cccnc3)Nc3ncnn32)cc1 (configuration not stated) | 0.011
CCOC(=O)c1c(NC(=O)COc2ccc(C)cc2Br)sc2c1CCCC2 | -0.0361
CCc1ccccc1NC(=O)[C@H](CCS(C)(=O)=O)N1Cc2ccccc2C1=O | -0.441
Cc1ccc(NC(=O)c2ccc(NC3=NC4CS(=O)(=O)CC4S3)cc2)cc1 (configuration not stated) | -0.811

The list goes on:
SMILES | CBX7 inh | CBX7 inh z-score
CCC1Oc2ccc(C)cc2N(CC(=O)NCc2ccccc2Cl)C1=O (configuration not stated) | 0.913 | -1.63
CCc1ccc(C(=O)CC2(O)C(=O)Nc3ccc(Cl)cc32)cc1 (configuration not stated) | 1.05 | 1.73
CC(C)c1ccc(OCc2nc(-c3ccc(Cl)cc3)no2)cc1 | 1.4 | 0.448
Cc1cccc(S(=O)(=O)Nc2cccc(-c3cn4ccccc4n3)c2)c1 | 0.803&1.16 | -1.33&1.54
O=C(CCCn1c(=O)[nH]c2ccsc2c1=O)NCCCN1CCN(c2cccc(Cl)c2)CC1 | 1.04 | 0.95
COCCNC(=O)CSc1nc(-c2ccc(OC)c(OC)c2)[nH]c1-c1ccc(F)cc1 | 0.964 | -0.153
CCOc1ccc2nc(N3CCC(C(=O)Nc4ccc(Cl)cc4)CC3)sc2c1 | 1.02 | 0.982
CN(Cc1ccccc1)C(=O)c1cc(-c2ccc(F)cc2)on1 | 1.09 | 4.13
COc1ccc(C(=O)Nc2cccc(-c3nc4ncccc4o3)c2C)cc1 | 1.07 | 0.48
CCn1c(SCC(=O)Nc2cccc(C(F)(F)F)c2)nnc1-c1c[nH]c2ccccc12 | 1.1 | 0.675
Cc1nn(C)c(C)c1S(=O)(=O)N1CCCC(C(=O)Nc2cccc(Cl)c2C)C1 (configuration not stated) | 0.961 | -0.463
COc1ccc2c(c1)c(C(=O)CNc1nc(C)c(C)s1)c(C)n2C | 0.944 | -0.632
COc1cccc(CN2C(=O)c3ccccc3Sc3ccc(C(=O)NCCc4ccc(C)cc4)cc32)c1 | 0.873 | -1.95
COc1ccc(CNC(=O)Cn2ncc3c2-c2ccccc2OC3)cc1 | 0.987 | -0.361
O=C(O)Cn1nc(Cc2ccncc2)c2ccccc2c1=O | 1.03 | 1.26
Cc1ccc(-n2ncc(C(=O)Nc3ccc(Cl)cc3)c2C2CCN(C(=O)OC(C)(C)C)CC2)cc1 | 0.97 | -0.981
Cc1ccc2cc(CCNC(=O)c3ccc(Br)cc3)c(=O)[nH]c2c1 | 1.02 | 0.287
Fc1ccccc1N1CCN(c2ncnc3sc4c(c23)CCCC4)CC1 | 0.919 | -1.72
CC(C)NC(=O)C1CCC(=O)N1Cc1ccccc1Cl (configuration not stated) | 1.05 | 1.29
c1ccc(-c2noc(CSc3nc4ccccc4[nH]3)n2)cc1 | 1.15 | 2.15
O=C(c1cc(-c2ccc(F)cc2)on1)N1CCCCC1 | 1.08 | 0.863
COc1ccccc1-n1cnc2cc(NCc3ccc(N(C)C)cc3)ccc21 | 0.241* | -33.5*
CC1CC(C)CN(C(=O)CCn2nc(-c3ccc(Cl)cc3)ccc2=O)C1 (configuration not stated) | 0.963 | -1.12
CCCCNc1nc(SCC(=O)NC2CCCCC2)nc2ccccc12 | 1.02 | 1.2
COc1ccccc1CC(=O)Nc1ccc(-c2noc(COc3ccc(Br)cc3)n2)cc1 | 1.09 | 1.61
Cc1c(CNC2CCCCC2C)c(C(=O)O)c(C)n1Cc1ccccc1 (configuration not stated) | 1.01 | 0.18
CCCCCCCNC(=O)Cn1nc(-c2ccc(Cl)cc2)ccc1=O | 1.02 | 0.806
Cc1ccc2c(c1)N(CCC(=O)N1CCOCC1)C(=O)CO2 | 0.964 | -0.916
COc1cc(Cl)c(C)cc1NC(=O)Cn1ncc2c1-c1cc(C)ccc1OC2 | 1.05 | 1.27
COc1ccc(CCCc2nnc(SCC(=O)Nc3ccc(C)cc3C)o2)cc1 | 0.896 | -0.99
CCOC(=O)c1cnc2ccc(OCC)cc2c1Nc1ccc(C(C)C)cc1 | 1.09 | 2.29
CCOC(=O)c1sc2ncn(CC(=O)Nc3ccc(OCC)cc3)c(=O)c2c1C | 1.03 | 1.44
O=C(Cn1c(NCCO)nc2ccccc21)c1ccc(Br)cc1 | 0.937 | -1.39
O=C(Cn1nc(Cc2ccncc2)c2ccccc2c1=O)Nc1ccc(Oc2ccccc2)cc1 | 0.973 | -0.75

This is a subset (hit frequency here may not be typical).
